SARS PLpro yeast = qHTS of Yeast-based Assay for SARS-CoV PLP; S. cerevisiae expressing SARS-CoV PLpro, growth rescue; control for the full effect not named in the record; 330,000 compounds, 0.19% hits; AID 485353, 2010; Potency, µM (doses to about 32.9 µM), inactives show at the highest dose activity, positive = growth rescue; active means well fitted rising curve with a large enough effect; inconclusive means small, poorly fitted or top-dose-only effect; inactive means no such curve, though single readings can be large or run the other way; note: 0% is about no effect; nearly all actives have a fitted effect of over 55% in size; growth read by luminescence after 48 h
NS1 inh = qHTS Assay for Inhibitors of Influenza NS1 Protein Function. S. cerevisiae slowed by influenza A NS1, growth recovery by OD600. Potency, µM (top dose mostly 46.1 µM), inactives show top-dose activity, positive = more growth. 270,000 compounds, 0.4% hits; active means well fitted rising curve with a large enough effect; inconclusive means small, poorly fitted or top-dose-only effect; inactive means no such curve, though single readings can be large or run the other way; note: nearly all actives have a fitted effect of over 50% in size
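OD600 was taken as the measure of yeast growth restored by compound in an NS1-expressing S. cerevisiae strain. Cells had been washed out of glucose medium and diluted 1:100 into galactose -URA medium, pH 6.0.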
Marburg entry inh = qHTS for inhibitors of binding or entry into cells for Marburg Virus | Marburg virus pseudotyped entry inhibition, cell reporter; control for the full effect not named in the record; about a third of the inactives were read at about 46 µM | Potency, µM (series often up to 37.8 µM), without a hit: at the top dose activity change, negative = inhibition, hits mostly inhibitors | AID 540276, 2011 | 300,000 compounds, 1.8% hits; active = well fitted inhibition curve with a large enough effect; inconclusive = small, poorly fitted or top-dose-only effect, or effect the other way; inactive = flat fitted curve, though single readings scatter; tested in HEK293 cells; about a fifth of its hits are not listed in these tables; note: % is set by controls: 0 for no effect and ±100 for the full control effect; luciferase read-out
Lassa entry inh = qHTS for Inhibitors of binding or entry into cells for Lassa Virus. AID 540256, 2011. Lassa virus pseudotype entry inhibition, cell reporter; control for the full effect not named in the record. 300,000 compounds, 1.2% hits. Potency, µM (titrated, usually from 37.9 µM), for inactives: at the top dose activity change, negative = inhibition, actives largely listed as inhibitors; active means well fitted inhibition curve with a large enough effect; inconclusive means small, poorly fitted or top-dose-only effect, or effect the other way; inactive means flat fitted curve, though single readings scatter; tested in HEK293 cells; note: % is set by controls: 0 for no effect and ±100 for the full control effect; nearly all actives have a fitted effect of over 50% in size; luciferase read-out
RE007 growth inh = qHTS Assay for Inhibitors of the HIV-1 protein Vpr. S. pombe RE007 Vpr strain, BacTiter-Glo ATP luminescence, 24 h; control for the full effect not named in the record. 360,000 compounds, 0.21% hits. Potency, µM (doses to about 92.2 µM), without a hit: at the highest dose activity change, negative = less growth; active = well fitted falling curve with a large enough effect; inconclusive = small, poorly fitted or top-dose-only effect; inactive = no such curve, though single readings can be large or run the other way;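 note: % is set by controls: 0 for no effect and ±100 for the full control effect; nearly all actives have a fitted effect of over 50% in size; the assay follows cell death caused by Vpr and the record does not say whether a fall means rescue or toxicity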
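Fission yeast strain RE007, carrying one chromosomally integrated HIV-1 vpr copy, was seeded at OD 0.01 in PMG+AL medium with 23 nL pinned compound. After 24 h at 30 °C and 99% humidity, viability was read by BacTiter-Glo luminescence.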
StopGo reporter = High Throughput Screening for Foot and Mouth Disease Virus Antivirals; human cells with a luciferase reporter of 2A StopGo recoding; control for the full effect not named in the record; Potency, µM (doses to about 57.9 µM), inactives show at the highest dose signal change, negative = less light; 410,000 compounds, 1.2% hits; AID 1159524, 2015; active = well fitted falling curve with a large enough effect; inconclusive = small, poorly fitted or top-dose-only effect; inactive = no such curve, though single readings can be large or run the other way; tested in HEK293T cells; note: % is set by controls: 0 for no effect and ±100 for the full control effect; nearly all actives have a fitted effect of over 45% in size; luciferase light after 4 h
Cruzain Triton = qHTS Assay for Promiscuous and Specific Inhibitors of Cruzain (with detergent). Cruzipain (Trypanosoma cruzi), P25779. purified cruzain, Z-FR-AMC fluorescence, 0.01% Triton. Potency, µM, for inactives: max response, negative = inhibition, most hits filed as inhibitors. 200,000 compounds, 0.43% hits;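 note: plate controls were neutral wells for no effect and buffer without enzyme for full effect; nearly all actives have a fitted effect of over 40% in size; top concentration of the series not given in the record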
Target sequence (P25779 123-467 limits assumed): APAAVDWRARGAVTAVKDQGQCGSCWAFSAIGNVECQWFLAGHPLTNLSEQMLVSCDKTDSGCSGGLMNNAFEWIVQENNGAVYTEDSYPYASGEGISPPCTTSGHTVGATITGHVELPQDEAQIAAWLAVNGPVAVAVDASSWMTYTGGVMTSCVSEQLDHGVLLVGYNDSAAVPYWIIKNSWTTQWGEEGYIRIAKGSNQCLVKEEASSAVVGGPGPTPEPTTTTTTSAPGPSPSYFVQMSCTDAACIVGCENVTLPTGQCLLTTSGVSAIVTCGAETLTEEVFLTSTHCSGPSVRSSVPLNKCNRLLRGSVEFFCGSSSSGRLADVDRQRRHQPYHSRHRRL
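Detergent-containing run (0.01% Triton X-100) in acetate buffer pH 5.5 with 5 mM DTT: enzyme at 1.5 nM final, 15 min compound preincubation at room temperature, then 2 uM Z-FR-AMC substrate. Activity taken as 60 s fluorescence increase at 360/450 nm.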
Cruzain inh noDet = qHTS Assay for Promiscuous and Specific Inhibitors of Cruzain (without detergent). purified cruzain, Z-FR-AMC fluorescence, no detergent. Potency, µM, for inactives: max response, negative = inhibition, most hits filed as inhibitors. 200,000 compounds, 2.3% hits;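 note: plate controls were enzyme without inhibitor for no effect and buffer without enzyme for full effect; nearly all actives have a fitted effect of over 40% in size; top concentration of the series not given in the record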
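Detergent-free condition (0.00005% Triton X-100) in acetate buffer pH 5.5 with DTT. 1.5 nM enzyme and compound were pre-mixed 15 min, then 2 uM Z-FR-AMC substrate added; reaction progress from fluorescence change between first and third reads (60 s).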
The depositor's hits bear a star; ? = inconclusive; nt = no result given; & = joins results of further samples; [ ] = remark or other dose. Unless noted, calls come from the whole dose curve; as a rule, active = well fitted curve in the direction sought with a large enough effect; inconclusive = small, poorly fitted or top-dose-only effect, or another doubt; inactive = no such curve, though single readings can be large; an effect the other way counts as inactive or inconclusive. Potency is the fitted concentration of half-maximal effect.

SMILES	SARS PLpro yeast	NS1 inh	Marburg entry inh	Lassa entry inh	RE007 growth inh	StopGo reporter	Cruzain Triton	Cruzain inh noDet
CCc1ccc(-c2nc(CN3CCC(C(=O)NCCN(CC)c4ccccc4)CC3)c(C)o2)cc1	-12.3%	-2.1%	-8.2%	7.7%	-7.9%	?	-7.2%	0.1%
COC(=O)C1=C(C)N(Cc2ccccc2)C(=NCCc2ccccn2)N[C@H]1c1cccc(F)c1	?	0.7%&-3.3%	nt	nt	-3.2%	-28.9%	nt	nt
Cc1ccc(C(=O)Nc2cccc3ccccc23)o1	nt	nt	4.8%[46.1 µM]	2.4%	-2.4%	0.0%	nt	nt
CC(C)(C)c1ccc(C(=O)NC(=S)N2CCCCCC2)cc1	-14.7%	-87.4%	nt	nt	-26.9%	12.7%	nt	nt
COCC1CCCN(Cc2cn(Cc3ccccc3)nc2-c2cc3ccccc3o2)C1 (stereo unspecified)	-0.1%	-4.6%	2.51µM*	?	-4.4%	-13.1%	nt	nt
Cc1nn(CC(=O)Nc2ccc(OC(F)(F)F)cc2)c(=O)c2c(C)n(-c3ccc(Cl)cc3)nc12	nt	nt	nt	-1.9%[46.1 µM]	nt	-10.9%	3.6%	3.2%
O=S(=O)(c1cccc2nsnc12)N1CCN(C/C=C/c2ccccc2)CC1	-7.4%	-11.0%	-0.7%	-2.3%	-25.4%	?	-6.0%	0.9%
CCCOc1ccc(-c2c(C(=O)N/N=C/c3ccncc3)nnn2-c2nonc2N)cc1	-1.2%	11.3%	2.5%[46.1 µM]	-1.6%[46.1 µM]	-3.7%	-13.2%	nt	nt
Cc1c(C(=O)OCC(=O)N2CC(=O)Nc3ccccc32)oc2ccccc12	-3.7%	6.4%	?	-18.1%	11.1%	-4.1%	1.8%	1.1%
COc1ccccc1NC(=O)c1ccc(S(=O)(=O)N2CCOCC2)cc1	2.5%	-8.4%	14.2%	2.6%	-8.7%	-29.3%	1.5%	-6.5%
OCCN1CCN(CC#CCC(c2ccccc2)c2ccccc2)CC1	1.3%	-1.1%	nt	nt	3.3%	?	nt	nt
CN(C)c1ccc(/C=C2/SC(=O)N(CCN=C3NS(=O)(=O)c4ccccc43)C2=O)cc1	-6.2%	-1.6%	19.8%	-24.5%	4.2%	29.3%	0.8%	?
CN(CC(=O)Nc1ccccc1N1CCCC1)S(=O)(=O)c1ccc(F)cc1	-9.5%	nt	-2.2%[46.1 µM]	-19.5%	-17.4%	?	nt	nt
O=S(=O)(c1ccccc1)N1CCN(C(=S)Nc2ccc(Br)cc2)CC1	0.9%	7.1%	-9.5%[46.1 µM]	-7.7%[46.1 µM]	-8.0%	10.5%	nt	nt
COc1cc([N+](=O)[O-])cc(/C=N/NC(=O)CSc2ccccn2)c1O	5.5%	1.9%	-28.9%[46.1 µM]	-29.6%	-0.1%	14.5%	nt	nt
CCOc1ccc(NC(=O)CN(C)C(=O)CCCOc2ccc(Cl)c(C)c2)cc1OCC	nt	2.5%	?	?	-6.2%	-9.1%	nt	nt
CCn1c(COc2cc(C)ccc2C(C)C)nnc1SCC(=O)Nc1nccs1	0.3%	nt	-12.1%	-8.6%	-10.4%	-19.9%	nt	nt
Cc1c(Cl)cccc1NC(=O)NCc1c(-n2cccc2)sc2c1CCCC2	nt	nt	8.6%[46.1 µM]	10.6%[46.1 µM]	nt	-1.1%	-3.4%	2.3%
Cc1ccc(NC(=O)c2oc(=O)c3ccccc3c2-c2ccccc2)c(C)c1	1.5%	-0.1%	-19.9%	?	-16.2%	-29.2%	-7.4%	14.7%
CCN(CC)S(=O)(=O)c1ccc2nnn(O)c2c1	0.4%	nt	-0.5%[46.1 µM]	2.2%	2.5%	-2.2%	nt	nt
COc1ccc(-n2c(=S)[nH]c3cc(C(=O)NCc4cccnc4)ccc3c2=O)c(OC)c1	-3.4%	3.2%	12.2%[46.1 µM]	-18.2%[46.1 µM]	7.7%	-19.6%	nt	nt
COc1ccc(C(=O)NN=C(Cc2ccccc2)Cc2ccccc2)cc1OC	-5.8%	4.8%	2.2%	?	10.0%	-19.0%	-1.2%	?
CCOC(=O)Cn1nc(C)c(NC(=O)COc2ccc(C)c(C)c2)c1C	1.1%	3.9%	13.9%&13.9%[46.1 µM]	3.9%[46.1 µM]	6.0%	-22.2%&0.0%	1.2%	-4.2%
COc1ccc(N2CC(C(=O)OCC(=O)Nc3cccc(C)c3)CC2=O)cc1 (stereo unspecified)	2.2%	-6.7%	?	?	-5.7%	7.6%	nt	nt
Cc1ccc(C(=O)CCS(=O)(=O)c2ccc(Cl)cc2)cc1	-0.4%	1.2%	-11.9%[46.1 µM]	?	-14.9%	-9.8%	nt	nt
O=C(N/C(=C/c1cccc([N+](=O)[O-])c1)C(=O)N1CCCCCC1)c1ccco1	5.7%	-6.3%	nt	nt	16.1%	18.4%	nt	nt
CN(C)c1ccc(NC(=S)NC(=O)/C=C/c2ccc(Cl)cc2)cc1	-3.1%	18.8%	?	1.4%	-19.9%	48.6%[activator]	4.9%	5.01µM*
Cc1ccc(C(=O)Nc2ccccc2[N+](=O)[O-])cc1S(=O)(=O)N1CCOCC1	-2.7%	-17.8%	-0.9%[46.1 µM]	0.9%	3.1%	-2.3%	nt	nt
COc1cccc(NC(=O)C2CCCN2C(=O)OCc2ccccc2)c1 (stereo unspecified)	4.1%	0.6%	-21.6%[46.1 µM]	-10.7%	-15.7%	-10.3%	-1.4%	-6.3%
CCCCN(S(=O)(=O)c1ccccc1)S(=O)(=O)c1ccccc1	-19.3%	-21.0%	?	2.8%[46.1 µM]	-0.8%	-0.3%	nt	nt
Cc1ccc(S(=O)(=O)N2CCN(C(=O)C3CCCO3)CC2)cc1 (stereo unspecified)	1.7%	?	-10.3%[46.1 µM]	-2.3%[46.1 µM]	3.0%	-24.8%	nt	nt
S=c1[nH]nc(-c2ccncc2)n1/N=C/c1cccc2ccccc12	1.5%	2.7%	nt	nt	nt	nt	-0.9%	-11.4%
COc1ccc(C[C@@H]2c3cc(O)c(OC)cc3CCN2C)cc1O	22.6%	?	-1.6%	-7.1%	-1.1%	?	2.7%	-5.7%
CCc1cccc(C)c1NC(=S)N1CC2CC(C1)c1cccc(=O)n1C2 (stereo unspecified)	-1.5%	-6.7%	?	8.8%	8.6%	-8.2%	0.9%	-12.3%
COCCC(=O)N1CCC(n2nccc2NC(=O)c2ccccc2C)CC1	1.5%	1.8%	nt	nt	1.4%	17.5%	nt	nt
Cc1ccc(S(=O)(=O)N2CCC(C(=O)N3CCC(C(=O)NCc4cccnc4)CC3)CC2)cc1	3.4%	-0.6%	-13.2%	3.3%	4.5%	nt	-1.5%	10.5%
CC(C)Cc1ccc(C(C)C(=O)Nc2ccccc2O)cc1 (stereo unspecified)	-3.8%	-46.0%	?	?	8.6%	?	nt	nt
Clc1ccc(OCCn2ccnc2)c(Br)c1	-9.2%	-9.8%	-0.2%	12.5%	4.7%	-14.5%	0.4%	-16.7%
Oc1cc2c(cc1CN1CCN(c3cccc(C(F)(F)F)c3)CC1)CCC2	-2.1%	-2.4%	-6.9%[46.1 µM]	-1.6%	-13.0%	-18.1%	-8.9%	-6.1%
COc1cccc(CNC(=O)CCS(=O)(=O)c2cc3c4c(c2)CCN4C(=O)CC3)c1	nt	nt	nt	22.9%[46.1 µM]	nt	22.4%	-0.7%	-1.7%
CC(=O)c1ccc(-c2cccc([C@H]3[C@@H]4C=CC[C@@H](C)[C@@H]4C(=O)N3Cc3ccccc3)c2)cc1	-0.7%	nt	nt	nt	-1.8%	-3.1%	0.1%	-12.2%
O=C1c2ccccc2C(=O)N1Cc1cc(-c2ccccc2)no1	0.6%	-4.9%	21.9%	-5.7%	-1.8%	nt	-2.9%	4.3%
COc1ccc(NC2CCCN(C(=O)c3csc(C(C)C)n3)C2)cc1OC (stereo unspecified)	18.1%	15.1%	-17.1%	7.6%	6.0%	-13.5%	nt	nt
CCCCn1c(O)c(/C=C2\C=NN=C2c2ccccc2)sc1=S	-16.4%	10.8%	-12.1%	-2.0%	21.3%	-5.1%	-3.8%	?
Cc1ccsc1C(=O)Nc1nc2ccccc2[nH]1	-3.9%	-32.7%	nt	nt	?	-32.9%	nt	nt
CC(=O)N(Cc1ccco1)C1(C(=O)NC2CCCC2)CCCCC1	14.0%	10.1%	8.5%	3.1%	-10.5%	-8.3%	6.0%	3.8%
Oc1ccc(N2CCN(Cc3ccc(OCCCN4CCCCC4)cc3)CC2)cc1	-1.1%	nt	12.6µM*	6.9%[46.1 µM]	3.4%	27.0%	nt	nt
COc1ccc(C(=O)Nc2sc3c(c2C#N)CCN(C(C)=O)C3)cc1	-2.4%	nt	?	?	-4.8%	8.7%	nt	nt
CC/C(=N/O)C(=O)c1ccc(Br)cc1	-24.9%	nt	1.2%[46.1 µM]	8.91µM*	-18.7%	5.9%	nt	nt
COc1ccc(CCN(Cc2cc3ccc(C)cc3n3nnnc23)C(C)=O)cc1OC	-4.3%	nt	2.9%[46.1 µM]	-19.3%	1.2%	-18.1%	nt	nt
COc1ccc2sc(N3C(=O)CC(Cc4cccc(C)c4)C3=O)nc2c1 (stereo unspecified)	-2.6%	25.4%	-2.0%	5.2%	11.3%	nt	-1.9%	1.5%
Cc1ccc(-c2cc(C(=O)n3cnc4ccccc43)c3ccccc3n2)cc1C	-10.0%	-8.3%	?	?	-17.8%	-8.4%	-0.3%	?
CCOCCCNc1nc2cc(OC)c(OC)cc2c2nc(-c3ccccc3)nn12	nt	nt	?	nt	nt	?	1.1%	-10.8%
Cc1ccc(C(=O)/C=C/c2cn(CC(O)CN3CCCCCC3)c3ccccc23)cc1 (stereo unspecified)	nt	nt	?	6.3%[46.1 µM]	nt	?	-8.9%	?
CCSC1=C(C#N)C(c2ccc(Cl)cc2)C2=C(CCCC2=O)N1 (stereo unspecified)	1.1%	-33.4%	?	-25.7%	-0.7%	-21.1%	-4.2%	-3.4%
